MgrA-DNA mod: S. aureus MgrA activity modulators, primary screen, biochemical, S. aureus Newman, fluorescence polarization | actives 0.13% (n = 84,000) | MgrA-DNA binding | inhibition, %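 (about 10 µg/mL by stock and volumes)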 | AID 602314, 2012;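 active = above 50% in either of two replicates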;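 note: 0% = protein plus DNA without compound and 100% = DNA alone without protein; higher means less MgrA bound to DNA so lower polarization; one replicate is shown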
S aureus helic: inhibitors of S. aureus replicative helicase, primary screen, biochemical, fluorescence unwinding readout; replicative DNA helicase (DnaC/DnaB), Staphylococcus aureus; purified S. aureus helicase, fluorescence unwinding assay; about half of the hits fall short of the stated cut; inhibition, %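 (tested at about 80 µM)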; actives 0.05% (n = 120,000); AID 485395, 2010;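 active = both duplicates at 50% or more, or one of them with a favoured structure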;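 note: 0% = mean of negative control wells and 100% = mean of positive control wells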
Starred values were filed as active, the others as inactive; . = not tested or not shown. These rows are one share of the data; count on the stated rates, not on these rows.

MgrA-DNA mod,S aureus helic,smiles
.,1.0,CC12CCC(=O)N1C(C(=O)NCCN1C(=O)S/C(=C\c3ccccc3)C1=O)CS2 (configuration not stated)
.,-15.0,CC(C)Cc1nnc(NC(=O)CCn2[nH]c(=O)ccc2=O)s1
-3.0,.,N#Cc1cccc(CSc2ncnc(N)n2)c1
-5.3,0.0,O=C(NCCc1ccccc1)c1ccccc1O
.,-12.0,O=C(COC(=O)c1ccc(-n2cnnn2)cc1)Nc1ccccc1C(=O)NC1CC1
-0.2,.,CC(C)NC(=O)c1cc(-c2cccs2)on1
-0.3,.,Clc1ccc(-c2csc(-c3[nH]ncc3Br)n2)cc1
.,15.0,CCC(=O)N1CCc2cc(Br)cc(S(=O)(=O)N3CCCCC3)c21
0.3,9.0,c1cncc(C2OCC3(CO2)COC(c2cccnc2)OC3)c1 (configuration not stated)
3.6,3.0,CNc1ncc(Br)nc1Br
.,-17.0,O=C(Cn1cccc1C(=O)c1ccccc1)NCCCN1CCCC1
.,7.0,Cc1c(C2=CCN(S(=O)(=O)c3ccc(Cl)s3)CC2)c2ccccc2n1CC(=O)N1CCCC1
0.0,11.0,O=C(NC(=O)c1ccccc1)c1ccccc1
-0.7,-4.0,O=C1C=C(NCCOC23CC4CC(CC(C4)C2)C3)C2(CCCCC2)O1
0.5,-7.0,CCc1ccc(Sc2cc(C(=O)NC3CC3)c3ccccc3n2)cc1
.,8.0,COc1ccccc1/C=C1\C(=O)Nc2ccccc21
0.1,.,O=c1cc(C(F)(F)F)[nH]c2c(OC(F)(F)F)cccc12
.,-16.0,COc1ccc(OC(=O)Nc2csc(Cc3ccsc3)n2)cc1
-0.6,-13.0,Cc1nnc(NC(=O)c2ccccc2Br)s1
1.4,.,COc1ccc(S(=O)(=O)n2nccc2-c2ccc(-c3cccs3)s2)cc1OC
-1.8,.,Cc1cc(C)c(-n2nnnc2SCC(=O)C(C)(C)C)c(C)c1
.,2.0,COc1cc(/C=N/NC(N)=O)cc(Br)c1OC
3.4,4.0,CN(C)C(=O)c1c(NC(=O)c2ccccc2)sc2c1CCC2
4.0,.,OCC(O)Cn1c2ccccc2c2ccccc21 (configuration not stated)
0.2,5.0,COC(=O)c1ccc(C(=O)OC)c(NC(=S)N2CC(C)CC(C)C2)c1 (configuration not stated)
5.1,.,CC(=O)c1sc(SCc2ccc(Cl)cc2)c2c1CC(C)(C)CC2=O
.,-3.0,O=C(NCC(=O)N1CCCC1)c1ccc(Br)cc1
0.8,8.0,CCNCC(O)COc1cc(C)c(Cl)c(C)c1 (configuration not stated)
3.0,10.0,CC(C)(C)c1ccc(CNC(=O)C2CCCN2S(=O)(=O)c2ccccc2)cc1 (configuration not stated)
0.9,6.0,COc1ccc(-c2nn(C)c(=O)c3ccccc23)cc1CNC(=O)NC1CCCCC1
0.8,.,Cc1ccc2cc(F)ccc2c1
.,-2.0,COCc1c(C(=O)Oc2ccc(-n3cnnn3)cc2)sc2cccc(F)c12
-3.3,.,CCOC(=O)c1sc(-c2ccccc2)nc1CSc1nnc(SC)s1
.,8.0,COc1ccc(C2c3cccn3CCN2S(=O)(=O)c2ccc(NC(C)=O)cc2)cc1OC (configuration not stated)
.,0.0,O=C(OCC(=O)c1c[nH]c2ccccc12)c1cccs1
2.7,-23.0,COc1cccc(NC(=O)c2cc(Cl)nnc2Cl)c1
0.0,4.0,CC1=C(C#N)C(c2cccc(Oc3ccccc3)c2)C2=C(CCCC2=O)N1 (configuration not stated)
-0.8,7.0,CC(C)NC(=O)c1nc2ccccc2s1
.,11.0,O=C(Cn1ncc2c3ccccc3n(Cc3ccccc3)c2c1=O)NC1CCCC1
.,30.0,COC(=O)c1cc(OCC(=O)N2CC(C)CC(C)C2)cc(C(=O)OC)c1 (configuration not stated)

Some of these compounds in order of the S aureus helic value, highest first:
| mol | S aureus helic |
| --- | --- |
| CCC(=O)N1CCc2cc(Br)cc(S(=O)(=O)N3CCCCC3)c21 | 15.0 |
| O=C(NC(=O)c1ccccc1)c1ccccc1 | 11.0 |
| O=C(NCC(=O)N1CCCC1)c1ccc(Br)cc1 | -3.0 |
| O=C1C=C(NCCOC23CC4CC(CC(C4)C2)C3)C2(CCCCC2)O1 | -4.0 |

Look-ups from the results shown:
S aureus helic result of CCNCC(O)COc1cc(C)c(Cl)c(C)c1 (configuration not stated) → 8.0
S aureus helic result of O=C(OCC(=O)c1c[nH]c2ccccc12)c1cccs1 → 0.0

The list goes on.
MgrA-DNA mod,S aureus helic,smiles
-2.6,18.0,c1ccc(CCNc2ccccc2)cc1
-2.3,15.0,CCCn1c(-c2nonc2N)nc2ccccc21
-0.5,0.0,O=C1c2ccccc2C(Nc2ccc3c(c2)OCCO3)N1c1ccccn1 (configuration not stated)
.,-3.0,O=C1Cc2ccccc2C(=O)N1
.,4.0,COC(=O)c1ccc(COC(=O)c2ccc3c(=O)n4c(nc3c2)CCCCC4)o1
0.1,-2.0,CCCCN(Cc1cc2cc(OC)ccc2[nH]c1=O)S(C)(=O)=O
.,-3.0,CCOC(=O)c1c(C)oc(NC(=O)c2nn(Cc3ccccc3)c(=O)c3ccccc23)c1C#N
.,7.0,CCOC(=O)c1sc2nc(CC(=O)OC)nc(NCC(=O)OC)c2c1C
-30.2,17.0,CC(C)(C)n1nnnc1C(c1cccs1)N1CCCc2ccccc21 (configuration not stated)
3.5,14.0,O=C(C(=C1NCCN1)n1ccnc1)c1ccc(Cl)cc1
.,5.0,Cc1ccc(-c2noc(CN(Cc3ccco3)S(C)(=O)=O)n2)cc1
3.6,3.0,COC(=O)CSc1nnc2c3ccccc3n(CCc3ccccc3)c2n1
3.9,-5.0,CN(C)c1ccc(Nc2ncnc3ccc(I)cc23)cc1
0.5,-4.0,CCN(Cc1ccccc1)C(=O)Cn1c(SCc2ccc(F)cc2)nc2cccnc21
.,8.0,CCN(CC)S(=O)(=O)c1ccc(-c2ccc(C3N=C(N)Nc4nc5ccccc5n43)o2)cc1 (configuration not stated)
.,-21.0,CC(C)(C)NCCOc1ccc2ccccc2c1
.,11.0,CCOC(=O)c1cc(/C(C)=N/OC(=O)c2ccccc2)on1
8.3,0.0,O=C(Cn1ncc2c1-c1ccccc1OC2)Nc1nccs1
.,15.0,C/C(=N\NC(=O)COc1ccc(Cl)cc1)c1ccc(O)cc1O
.,-11.0,O=C1CNC(=S)N1CCc1cnc[nH]1
-1.1,1.0,O=C(c1cccs1)N1CCN(Cc2cccc(Cl)c2)CC1
0.2,.,Cc1ccc(NC(=S)N(CCC#N)CCc2ccccn2)cc1
.,7.0,O=C(O)/C=C/c1nc2ccccc2s1
4.3,15.0,Cc1ccc2[nH]c(=O)c3cc(C(=O)NCCN4CCN(c5ccccc5F)CC4)sc3c2c1
.,-14.0,Cc1ccc2nc(NC(=O)c3ccccc3C(=O)O)sc2c1
0.4,6.0,CCN1CCN(Cc2c(C)[nH]c3c(C)cc(C)cc3c2=O)CC1
.,11.0,Cc1nc2nc[nH]n2c(=O)c1CCC(=O)O
-0.1,13.0,CN(C(=O)COC(=O)c1cc2ccccc2cc1O)c1ccccc1
.,4.0,CCCCN(C)S(=O)(=O)c1ccc(C(=O)Nc2nnc(-c3ccco3)o2)cc1
-0.1,7.0,CC(C)OC(=O)C1=C(N)OC2=C(C(=O)CCC2)C1c1ccccc1F (configuration not stated)
.,16.0,CCOc1ccc(CCNC(=O)CN2CCN(Cc3ccccc3C)C2=O)cc1OCC
.,-2.0,O=C(/C=C/c1cccs1)NCCOc1ccccc1
-3.2,.,CCC(=O)OC1(C(=O)CCl)[C@@H](C)C[C@H]2[C@@H]3CCC4=CC(=O)C=C[C@]4(C)[C@@]3(F)[C@@H](O)C[C@@]21C (some centres not stated)
2.8,.,O=C(CC(=O)c1c(F)cccc1F)c1ccccc1O
.,10.0,CC(OC(=O)CSc1nc2ccccc2o1)c1nnc(-c2ccccc2)o1 (configuration not stated)
0.2,-10.0,CCOC(=O)c1sc2sc(C(=O)OCC)c3c2c1CN(Cc1ccccc1)C3
-0.1,3.0,Cc1ccc(S(=O)(=O)c2nc(-c3ccccc3)oc2NCc2ccc3c(c2)OCO3)cc1
-0.1,6.0,COC(=O)c1cc(-c2ccccc2)nc2ccccc12
.,8.0,COc1ccc2c(c1)sc(=NC(=O)c1cccc(S(C)(=O)=O)c1)n2C
-0.3,.,COc1ccc(-c2cc(-c3ccccc3)nc(SCC(N)=O)c2C#N)cc1
.,-14.0,CC(C(=O)Nc1ccc2c(c1)OCCO2)N(C)Cc1c(F)cccc1Cl (configuration not stated)
2.5,16.0,O=c1oc2ccccc2cc1-c1nnc(-c2cccc3ccccc23)o1
.,12.0,CN1C(=O)C(C#N)=C(N)C12CCCC2
.,-1.0,NC(=O)Cn1c(=O)c2ccc(Cl)cc2n2nncc12
.,5.0,O=C1c2ccccc2C(=O)N1Cc1cc(=O)n2ccsc2n1
-2.5,16.0,Cc1nn2c(C)nc3sc4c(c3c2nc1=O)CC(C)(C)OC4
1.9,8.0,COc1ccc(-c2ccc(CCC(=O)O)n2Cc2ccco2)cc1
.,3.0,CCC(=O)Nc1cccc(-c2nc3ccccc3s2)c1
.,10.0,Cc1nnc(SC(C(=O)N(C)C)c2ccccc2)n1C1CC1 (configuration not stated)
.,-6.0,Cc1cc2ccccn2c1C#N
.,6.0,Cc1cc(C(=O)COC(=O)c2ccc(N)cc2)c(C)n1-c1c(C)n(C)n(-c2ccccc2)c1=O
-2.4,0.0,Cc1ccc(OCCNC(=O)c2ccccc2N)cc1
.,2.0,COc1ccc(C(=O)CCC(=O)NCc2cc(OC)cc(OC)c2)cc1
-1.4,5.0,O=C(CSc1nc2ccccc2c(=O)n1-c1ccccc1)N1CCCC1
-0.1,.,CCc1nn2cc(-c3ccc(F)cc3)nc2s1
4.8,13.0,Cc1onc(-c2ccccc2)c1C(=O)NC(=S)Nc1sc2c(c1C#N)CCC2
-1.1,.,Cc1ccc(-c2ccn[nH]2)cn1
1.0,-18.0,Cc1ccc(Oc2ccc(OCC(=O)Nc3ccncc3)cc2)cc1
.,18.0,COC(=O)N/N=C/c1cccc(C(F)(F)F)c1
-0.7,.,COc1ccccc1N(CCN1C(=O)c2cccc3cccc(c23)C1=O)C(=O)c1cc(OC)c(OC)c(OC)c1

(continued)
MgrA-DNA mod,S aureus helic,smiles
3.0,.,CCOC(=O)c1sc(SCc2ccccc2)c(S(=O)(=O)C(C)C)c1-n1cccc1
1.3,-11.0,O=C(Cn1c2ccccc2c2cn[nH]c(=O)c21)NCCc1ccc(Cl)cc1
-1.2,.,COc1ccc(/C=C2/SC(=O)N(CC(=O)Nc3cc(C)on3)C2=O)cc1OC
-0.3,-3.0,CC(=O)Nc1ccc(S(=O)(=O)N2CCCC(c3nnc(SCc4ccccc4)n3C)C2)cc1 (configuration not stated)
0.6,15.0,CCOc1ccc(CCNC(=O)c2c(-n3cccc3)sc(C)c2C)cc1OCC
-1.9,-3.0,CC(Sc1nc(-c2ccccc2)cc(=O)[nH]1)C(=O)NC1CCCCC1 (configuration not stated)
-8.5,.,COc1ccc(N=CC2=C(Cl)c3cc(F)ccc3OC2)cc1
0.5,9.0,COc1ccc(CC(=O)Nc2ccc(S(N)(=O)=O)cc2)cc1OC
.,2.0,N#CC1(P(=O)(c2ccccc2)c2ccccc2)CCCC1
-1.1,.,c1ccc(-n2ccnc2)c(-c2ncn[nH]2)c1
.,6.0,O=C(Cn1ncc2c(Cl)cccc21)NCCN1CCCC1
.,15.0,COc1ccc(C(=O)NCc2ccco2)cc1OC
-0.6,9.0,Cc1cc(NC(=O)C2CCCCC2)nc2c1c(=O)oc1ccccc12
.,9.0,COCCCn1c(Sc2ccc(S(=O)(=O)N3CCCC3)cn2)nnc1-c1ccccc1Cl
.,4.0,CCc1ccc(-c2ccc(=O)n(CC(=O)N3CCCCC3)n2)cc1
1.8,.,c1ccc(-c2nc(-c3cccs3)[nH]c2-c2ccccc2)cc1
.,-8.0,CCC(CC)NC(=O)CSc1nc2c(cnn2-c2cccc(C)c2)c(=O)[nH]1
.,18.0,CCc1cccc(CC)c1N(COC)C(=O)CN1c2ccccc2NC1CC (configuration not stated)
-1.5,.,CC(=O)Nc1ccc(S(=O)(=O)N2CCCCC2)cc1Cl
.,10.0,CCn1c2ccccc2c2cc(NC(=O)COc3ccccc3C#N)ccc21

Profiles from above. Order of values: MgrA-DNA mod, S aureus helic
`Cc1cc(C(=O)COC(=O)c2ccc(N)cc2)c(C)n1-c1c(C)n(C)n(-c2ccccc2)c1=O` in the list: ., 6.0
`CC(=O)Nc1ccc(S(=O)(=O)N2CCCC(c3nnc(SCc4ccccc4)n3C)C2)cc1` (configuration not stated) in the list: -0.3, -3.0
`COc1ccc(-c2nn(C)c(=O)c3ccccc23)cc1CNC(=O)NC1CCCCC1` in the list: 0.9, 6.0
`CC(C(=O)Nc1ccc2c(c1)OCCO2)N(C)Cc1c(F)cccc1Cl` (configuration not stated) in the list: ., -14.0
`O=C(c1cccs1)N1CCN(Cc2cccc(Cl)c2)CC1` in the list: -1.1, 1.0

(further entries)
MgrA-DNA mod,S aureus helic,smiles
18.2,-3.0,O=C(CN(C(=O)Cn1nnc(-c2cccs2)n1)c1ccc2c(c1)OCCO2)NCC1CCCO1 (configuration not stated)
.,10.0,Nc1nc(-c2ccco2)c(-c2ccco2)s1
.,24.0,C=CCN1C(=O)c2ccccc2N2C(=O)CCC12C(=O)O (configuration not stated)
.,30.0,COc1ccc(CC(=O)N2CCOCC2)cc1
0.0,10.0,CC1CC(C)(C)NC(=S)O1 (configuration not stated)
.,-5.0,Cc1ccc(-n2nnnc2-c2ccccc2)cc1
.,12.0,CC(C)(C#N)NNC(N)=S
0.1,.,CS(=O)(=O)Nc1ccc(Cl)cc1
0.8,-9.0,Cc1nc2nc(NC(=O)C3CCCCC3)[nH]n2c(=O)c1C
.,-2.0,Cc1cc(C(=S)NC(=O)c2ccccc2)c(C)n1C
.,-20.0,Cc1c(O)ccc(-c2n[nH]c(C(F)(F)F)c2Oc2ccccc2)c1O
.,-7.0,O=C(O)COc1ccc2c(c1)C(=O)c1cc(OCC(=O)O)ccc1-2

Assay outcomes: PubChem, ICCB-Longwood Screening Facility, Harvard Medical School
